High-throughput results deposited in PubChem by several laboratories.
ALR inh: human ALR oxidase inhibition via reduced H2O2. 290,000 tested, 3.8% active. purified ALR, DTT oxidation, H2O2 HRP-luminol luminescence. inhibition, % (test concentration not listed). P55789;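 active = mean and each replicate at 75% or more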;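 note: stock transfer was 7.5 nL into about 7.5 µL; 0% = neutral wells and 100% = wells with inactivated enzyme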
HNF4A DNA FP: change in binding of human HNF4 alpha to DNA; HNF4a-FITC DNA binding, fluorescence polarization, 1 h; activity change, % at 10 µM; P41235; 360,000 tested, 0.3% active; in the data active = activity change above about 30%, passing the limit was not always enough;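 note: controls were the assay level and a saturating level of protein; the project sought stronger binding though the title names inhibitors; some compounds called inactive have numbers as strong as hits; positive values seem to mean higher polarization but the record does not say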
Target sequence (P41235 whole entry, looked up): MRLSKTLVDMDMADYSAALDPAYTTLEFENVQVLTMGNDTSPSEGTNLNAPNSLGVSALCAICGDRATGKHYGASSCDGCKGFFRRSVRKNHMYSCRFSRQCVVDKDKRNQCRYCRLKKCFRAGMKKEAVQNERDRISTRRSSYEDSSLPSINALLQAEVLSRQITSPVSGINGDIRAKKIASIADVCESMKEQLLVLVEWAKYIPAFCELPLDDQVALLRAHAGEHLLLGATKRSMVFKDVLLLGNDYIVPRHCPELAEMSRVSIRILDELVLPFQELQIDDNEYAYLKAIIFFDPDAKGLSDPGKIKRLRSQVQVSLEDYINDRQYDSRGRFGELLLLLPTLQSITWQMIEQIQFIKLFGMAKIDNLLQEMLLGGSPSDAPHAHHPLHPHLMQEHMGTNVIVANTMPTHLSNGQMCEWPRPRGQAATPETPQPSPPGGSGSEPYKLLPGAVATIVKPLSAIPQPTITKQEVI
B2AR ag: human beta-2 adrenergic receptor agonism by FAP; AID 504454; response, % (concentration not given with the values); 340,000 tested, 0.43% active; P07550; Am2.2-beta2AR cells, FAP receptor internalization, flow cytometry; reference of the scale not given here;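 active = response above a set limit, near 3 SD of response in nonfluorescent compounds, cut at about 42% in these data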;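 note: stock transfer was 100 nL into about 11 µL; a reference agonist was the positive control; negative values mostly stem from fluorescent compounds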
Target sequence (P07550 whole entry, looked up): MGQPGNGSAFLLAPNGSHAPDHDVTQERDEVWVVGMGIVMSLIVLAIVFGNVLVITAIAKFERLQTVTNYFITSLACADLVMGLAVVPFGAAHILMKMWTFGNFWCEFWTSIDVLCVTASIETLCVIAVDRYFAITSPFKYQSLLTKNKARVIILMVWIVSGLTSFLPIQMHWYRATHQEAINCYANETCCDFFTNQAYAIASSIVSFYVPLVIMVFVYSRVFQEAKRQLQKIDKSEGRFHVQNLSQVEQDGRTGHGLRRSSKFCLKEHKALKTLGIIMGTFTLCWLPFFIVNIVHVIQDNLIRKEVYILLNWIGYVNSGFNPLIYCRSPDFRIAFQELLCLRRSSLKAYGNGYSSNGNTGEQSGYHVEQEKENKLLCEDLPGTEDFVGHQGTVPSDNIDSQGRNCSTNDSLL
UCH37 inh: blocks the human deubiquitinase UCH37; Q9Y5K5; purified proteasome/UCH37, Ub-AMC cleavage fluorescence; inhibition, % (no concentration beside the values); 330,000 tested, 0.33% active; AID 588478;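 active = mean of two replicates above 20%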;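 note: 0% = compound-free wells with enzyme and 100% = wells lacking proteasome; stock transfer was 100 nL into about 20 µL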
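Reagent: Ub-AMC substrate; assay system: Proteasome-associated human UCH37 deubiquitinase; controls: no-proteasome and no-compound wells; read-out: % inhibition of Ub-AMC cleavage fluorescence; timing: 30 min preincubation with enzyme, 25 min cleavage at room temperature; signal: AMC fluorescence from Ub-AMC cleavage, excitation 355 nm, emission 460 nm; buffer or medium: Tris-HCl pH 7.4 plus ovalbumin, ATP-MgCl2, DTT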
E coli growth: blocks Escherichia coli growth. OD600, 23 h; hits give low values. OD600 absorbance (concentration not given with the values). 330,000 tested, 0.21% active;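 active = OD600 absorbance below the run mean of sample wells minus 3.6 SD, in any replicate, cut at about 0.56 in these data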;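 note: stock transfer was 300 nL into about 60 µL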
FGF22 binding: FGF22 (human) thermal shift binding | Q9HCT0 | recombinant FGF22 thermal shift, SYPRO orange fluorescence; percent of sucrose octasulfate shift, DMSO zero | calls only at 9.99 µM | 340,000 tested, 1.5% active;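 active = melting point raised past a set limit in the mean and every replicate; three in four hits are not shown here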
Target sequence (Q9HCT0 whole entry, looked up): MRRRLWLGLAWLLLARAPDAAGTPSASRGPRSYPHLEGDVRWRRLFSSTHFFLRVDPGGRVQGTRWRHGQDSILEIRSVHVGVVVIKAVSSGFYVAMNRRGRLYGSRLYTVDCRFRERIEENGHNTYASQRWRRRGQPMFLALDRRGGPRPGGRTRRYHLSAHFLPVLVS
LANA-H2A inh: blocks KSHV LANA binding to histone H2A/H2B. Q9QR71. inhibition, % (concentration not given with the values). 320,000 tested, 0.6% active. AID 2629. cell-free LANA-H2A/H2B peptide, fluorescence polarization; in the data active = inhibition mostly above about 10%, no sharp cut-off; inactive = mostly below about 6.7%;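 note: stock transfer was 7.5 nL into about 10 µL; 0% = median of vehicle wells and 100% = median of positive control wells; one replicate is shown; the record names a cut of 25% in any replicate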
* = called active by the depositor; i = inactive; . = not tested or not shown.

SMILES	ALR inh	HNF4A DNA FP	B2AR ag	UCH37 inh	E coli growth	FGF22 binding	LANA-H2A inh
Cc1cc2c(cc1S(=O)(=O)NC1CCCCC1C)OCC(=O)N2 (stereo unspecified)	-3.4	-1.8	-1.0	-1.3	0.682	i	-1.0
O=C(COC(=O)c1cc(=O)[nH]c2ccccc12)NCc1cccs1	-3.7	0.1	0.7	-11.1	0.725	i	-1.3
NS(=O)(=O)c1ccc(CNC(=O)c2csc3c2CCCC3)cc1	18.3	0.9	-9.9	6.2	0.718	i	-1.9
O=C(Nc1cccnc1)c1ccc2ccccc2c1O	91.4*	0.1	-12.6	-14.8	0.627	i	1.6
CCC1Nc2ncnc(N3CCc4ccccc4C3)c2N(Cc2ccc(Cl)cc2)C1=O (stereo unspecified)	-0.1	-2.4	6.8	0.3	0.62	i	2.9
Cc1cc(NC(=O)c2ccccc2)n(C(C)(C)C)n1	-5.7	-1.6	-3.9	0.0	0.676	i	-1.0
C=CCn1c(SCCC)nc(O)cc1=O	10.7	-6.9	8.0	-2.9	0.7	i	15.6*
Cc1ccc(NC(=S)NC(=O)C2CC2)c(C)c1	3.3	0.2	-6.3	3.1	0.737	i	-2.4
CN(C)c1ccc(/C=N/NC(=O)C(O)(c2ccccc2)c2ccccc2)o1	-2.1	1.6	2.2	.	.	.	-1.9
COc1ccc(C(C)(C)C)cc1NC(=O)c1ccoc1C	7.7	0.4	-18.9	3.0	0.713	.	1.3
CCOc1ccc(CCN2C(=O)C3C4CCC(O4)C3C2=O)cc1OCC (stereo unspecified)	.	-2.6	-6.0	1.5	0.714	i	-4.6
Cn1c(N)c(C(=O)c2ccc(C#N)cc2)c(=O)n(C)c1=O	-5.0	3.3	-2.1	6.4	0.672	.	-1.5
CCOC(=O)C1CCN(C(=O)c2ccc3c(Cl)c4c(nc3c2)CCCC4)CC1	95.4*	-0.1	8.8	4.4	0.704	i	-0.9
O=C(COC(=O)c1ccc[n+]([O-])c1)Nc1ccccc1OC(F)F	-0.4	-1.1	0.7	0.9	0.71	i	-0.7
Cc1cc(NS(=O)(=O)c2ccc(NC(=O)COc3ccccc3C(C)(C)C)cc2)no1	45.0	-2.5	0.2	5.3	0.707	i	0.4
Nc1ccccc1C(=O)N1CCC(O)(c2ccc(Cl)cc2)CC1	5.1	2.4	-1.0	3.7	0.719	i	0.3
Cc1ccc(Cn2ccsc2=NC(=O)COC(=O)c2ccc(NC(=O)CC#N)cc2)cc1	52.1	2.5	5.4	1.2	0.664	i	-1.1
CC[C@@]1(C(=O)OC)N[C@H](CN(C)S(=O)(=O)c2ccc(C(C)(C)C)cc2)[C@@H]2C(=O)N(Cc3ccccc3)C(=O)[C@@H]21	2.1	-0.5	-1.4	4.6	0.717	i	69.4*
Cc1ccc(Nc2c(-c3ccccn3)nc3cc(C)ccn23)cc1	98.5*	6.3	75.7*	-4.1	0.396*	i	-3.7
COc1ccc(NS(=O)(=O)c2cc(NC(=O)c3ccc(=O)[nH]n3)ccc2N2CCOCC2)cc1	2.0	-3.6	-3.4	4.0	0.663	i	0.0
COc1ccc(CCN(Cc2ccccn2)C(=S)Nc2ccccc2Cl)cc1OC	-14.8	-3.3	0.2	1.2	0.72	i	4.3
COc1ccc(NC(=O)/C(Cl)=C(/Cl)S(=O)(=O)Cc2ccccc2)cn1	.	-1.4	36.6	5.0	0.749	.	.
COc1ccc(Nc2ncnc3sc(-c4ccccc4)cc23)cc1OC	-29.3	1.7	6.5	-233.4	0.727	.	2.8
CC(=O)N1[C@H](C)C=C[C@]1(Cc1ccccc1)C(=O)O	8.3	0.3	-4.5	2.0	.	i	-1.0

Two compounds drawn at random from those above, as already listed:
SMILES	ALR inh	HNF4A DNA FP	B2AR ag	UCH37 inh	E coli growth	FGF22 binding	LANA-H2A inh
O=C(COC(=O)c1cc(=O)[nH]c2ccccc12)NCc1cccs1	-3.7	0.1	0.7	-11.1	0.725	i	-1.3
CC(=O)N1[C@H](C)C=C[C@]1(Cc1ccccc1)C(=O)O	8.3	0.3	-4.5	2.0	.	i	-1.0

Returning to the listing with the 3 entries that preceded the break.
SMILES	ALR inh	HNF4A DNA FP	B2AR ag	UCH37 inh	E coli growth	FGF22 binding	LANA-H2A inh
COc1ccc(NC(=O)/C(Cl)=C(/Cl)S(=O)(=O)Cc2ccccc2)cn1	.	-1.4	36.6	5.0	0.749	.	.
COc1ccc(Nc2ncnc3sc(-c4ccccc4)cc23)cc1OC	-29.3	1.7	6.5	-233.4	0.727	.	2.8
CC(=O)N1[C@H](C)C=C[C@]1(Cc1ccccc1)C(=O)O	8.3	0.3	-4.5	2.0	.	i	-1.0
CN1CCN(c2nc(N3CCN(CCO)CC3)nc3ccccc23)CC1	0.0	1.1	3.9	-105.9	0.727	.	-0.4
CCN(CC)C(=O)Cn1cnc2sc(C(=O)N3CCN(c4ccc(F)cc4)CC3)c(C)c2c1=O	51.1	-2.9	-1.5	2.4	0.686	i	-2.5
COCCCNC(=O)CCc1c(C)nc2c(c(C)nn2-c2ccc(C)cc2)c1C	-2.7	-1.8	11.0	-95.4	0.678	i	-3.5
Cn1nc(C(=O)NCCOc2ccccc2)c2ccccc2c1=O	-1.1	-4.2	-2.1	-0.7	0.677	i	3.6
CC1CCN(S(=O)(=O)c2ccc(NC(=O)CNC3CCCCC3)cc2)CC1	.	1.9	16.2	-0.5	0.611	i	2.7
COc1cc(C(=O)N/N=C(\C)c2ccc(NC(=O)Cc3ccccc3)cc2)ccc1O	95.5*	-0.2	2.4	.	.	i	-0.3
COc1ccc(OCc2cn(CC(=O)c3ccc(O)cc3)nn2)cc1	.	-2.0	-1.9	.	.	i	.
COc1cc(/C=C2\SC(=Nc3ccc(O)cc3)NC2=O)cc(OC)c1OC	-29.6	.	.	4.2	0.661	.	-5.2
COc1ccc([N+](=O)[O-])cc1NC(=S)NC(NC(C)=O)C(Cl)(Cl)Cl (stereo unspecified)	.	3.0	-1.4	3.9	0.75	i	.
COc1cccc(NC(=O)CN(C)C(C)C(=O)Nc2ccc(C#N)cc2)c1 (stereo unspecified)	-0.2	-0.7	1.3	7.6	0.7	i	-1.6
O=C(Nc1cccnc1)c1ccc2c(c1)C(=O)N(Cc1cccnc1)C2=O	-9.3	-4.1	-5.5	4.6	0.71	.	6.4
Cc1ccc(N2C(=O)N(CC(=O)Nc3cc(Cl)ccc3C)C(=O)C2C)cc1 (stereo unspecified)	.	-3.2	-0.2	1.0	0.688	i	.
CN1c2ccccc2N(C)C1(C)c1ccccc1	-15.8	-0.5	4.7	7.4	0.714	i	-3.0
CCn1c2ccccc2c2cc(NC(=O)C(C)OC(=O)c3ccc(NC(=O)CC#N)cc3)ccc21 (stereo unspecified)	1.4	3.7	1.7	1.8	0.696	i	-8.7
CNC(=S)/N=C(/Nc1ccccc1)c1ccccc1	.	-2.0	0.2	.	.	i	-1.0
CC1=C(C(=O)Nc2ccccc2)C(c2cccs2)C(C#N)=C(SCC#N)N1 (stereo unspecified)	-4.6	14.0	4.7	4.0	0.75	.	-0.1
COc1cc(NC(=O)C2=CC(c3ccc(C)cc3)=NS(=O)(=O)N2C)cc(OC)c1OC	6.3	0.5	10.5	6.2	0.737	i	-0.4
CC(C)[C@H](NC(=O)OC(C)(C)C)c1nnc(SCC(=O)Nc2ccc(Br)cc2)o1	-12.3	4.1	1.8	1.1	0.734	.	-1.2
Cc1ccc(C(=O)NCc2ccccn2)cc1NC1=NC2CS(=O)(=O)CC2S1 (stereo unspecified)	-14.5	1.6	9.4	0.7	0.77	i	1.3
CSCC[C@H](NC(=O)OC(C)(C)C)C(=O)N1CCC(C(=O)N[C@@H](C)C(=O)NCc2ccc(F)cc2)CC1	-20.7	3.1	2.1	-0.8	0.709	i	0.4
Cc1ccc(N2C(=O)C3CCCN3C2=S)cc1C (stereo unspecified)	1.9	3.3	12.6	5.0	0.651	i	6.7
CC1(C)Oc2ccc3ccc(=O)oc3c2[C@@H](O)[C@H]1O	-0.5	0.4	-3.0	0.4	0.757	i	-0.2
CCc1nc2ccccc2c(C(=O)OCC(=O)N(CC(C)C)c2c(N)n(Cc3ccccc3)c(=O)[nH]c2=O)c1C	.	3.7	12.7	2.4	0.679	i	.
Cc1cc(-n2c(C)cc(C(=O)CN3C(=O)NC4(CCCCCC4)C3=O)c2C)no1	0.5	4.2	0.9	1.1	0.635	.	2.5
Cc1ccc(NC(=O)C(=O)NCC2CCCO2)cc1C (stereo unspecified)	-7.5	2.2	7.5	3.6	0.721	i	-10.1
CC(C)C(=O)NCC(c1ccc2c(c1)OCO2)N1CCOCC1 (stereo unspecified)	-4.5	-3.8	9.0	-1.9	0.689	i	-1.3
CCOC(=O)C1CCCN(S(=O)(=O)c2ccc(Br)s2)C1 (stereo unspecified)	-6.4	3.8	-4.2	1.3	0.682	.	-3.3
Cc1onc(-c2c(Cl)cccc2Cl)c1NC(=O)NC1CCSC1 (stereo unspecified)	-1.2	0.3	2.6	6.0	0.703	i	5.6
COc1cc(NC(=O)C2CCC(CNc3c(N4CCCCC4)c(=O)c3=O)CC2)cc(OC)c1 (stereo unspecified)	.	18.2	1.9	5.6	0.678	i	5.2
O=C1C2CC=CCC2C(=O)N1n1cnnc1 (stereo unspecified)	-16.4	-1.5	-0.1	4.5	0.71	i	-2.4
Cc1cc(C(=O)COC(=O)c2ccc(O)cc2O)c(C)n1-c1ccc(OC(F)F)cc1	.	6.5	6.5	-1.9	0.644	i	.
CCNc1nc(NCC)nc(OCCOC(=O)COc2ccc(Cl)cc2Cl)n1	-8.8	-1.7	-1.1	-0.6	0.697	.	1.5
COc1ccc(CN=C(Nc2ccccc2)SC2CC(=O)N(C)C2=O)cc1 (stereo unspecified)	-2.6	-1.3	-18.1	1.2	0.7	i	-0.4
Brc1ccccc1OCCCCN1CCCCC1	1.3	1.4	4.7	3.8	0.684	i	1.4
O=C1ON=C(c2ccc(Cl)cc2)/C1=C/c1ccc(O)cc1	47.2	.	.	.	.	i	-3.8
Cc1ccccc1N1CC(C(=O)N2CCCCCC2)CC1=O (stereo unspecified)	-11.4	13.0	4.1	1.3	0.652	i	2.7
Nc1cc(=O)[nH]c(SCC(=O)Nc2cc(Cl)cc(Cl)c2)n1	-44.9	-3.7	-16.2	6.7	0.648	.	2.6
COc1ccc(S(=O)(=O)NCCOc2ccccc2)cc1OC	7.8	-0.6	6.2	5.0	0.696	.	3.0
CCC/C=N/NC(=O)c1[nH]c2c([N+](=O)[O-])cccc2c1C	8.1	5.2	-2.3	.	.	i	-2.9
CCc1noc(C)c1C(=O)Nc1nc(-c2cc(C)ccc2C)c(C)s1	3.6	-0.9	19.1	1.8	0.702	.	-5.6
CC(C)CCNC(=O)NC(=O)COC(=O)C1CCN(S(=O)(=O)c2ccccc2F)CC1	-1.2	3.9	-6.9	3.1	0.705	.	1.0
COC(=O)c1ccccc1NC(=O)NC1CC1	-4.7	-0.1	-0.8	-0.6	0.687	i	-5.1
Cc1ccccc1C(=O)NC1CCN(Cc2nnnn2C(C)(C)C)CC1	-5.3	1.6	-5.9	2.9	0.639	i	2.9
CC(NC(=O)COc1cc(=O)n(C)c2ccccc12)c1ccc2c(c1)OCCO2 (stereo unspecified)	-8.2	1.4	0.7	3.2	0.7	.	3.0
OC(CSc1ccc(F)cc1)CN1CCN(c2ccccc2)CC1 (stereo unspecified)	87.2*	-1.1	-3.9	-0.3	0.641	i	6.6
Cc1cn(CC(=O)N(C)Cc2ccco2)c(=O)[nH]c1=O	.	8.7	2.2	.	.	i	.
CCOC(=O)N/N=C(\C)c1ccc(OC(F)F)cc1OC(F)F	-9.1	1.1	6.4	.	.	i	-1.0
O=c1c2cc(Br)ccc2nc(-c2cccc(C(F)(F)F)c2)n1O	1.8	-0.9	5.4	.	0.707	.	5.4

These rows are one share of the data (hit frequency here may not be typical).
